TRPV1 PAM – enhances activation of the human vanilloid receptor TRPV1; Q8NER1; TRPV1-expressing cells, Fluo-8 calcium influx, capsaicin EC20 potentiation; host cell line not named in the record; control for the full effect not named in the record; potentiation, % at 8.33 µM; actives 0.02% (n = 320,000); AID 540277; active means potentiation above 80%; inconclusive means 30% to 80%; inactive means below 30%; also: 0% is about no effect
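TRPV1-expressing cells were cultured overnight at 35.5C and loaded with Fluo-8 calcium dye for 40 to 90 min at room temperature. After a 10 s baseline, compound was added and calcium influx was read kinetically for 3 min (ex 480/em 520 nm).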
TRPML1 agonist – human mucolipin-1 channel agonism | Q9GZU1 | TRPML1-expressing cells, Ca2+ dye fluorescence, FDSS; host cell line not named in the record; reference of the full effect not given here | activation, % (concentration not given with the values) | actives 0.12% (n = 410,000) | AID 624414; in the data active = activation above about 50%; inconclusive = about 30% to 50%; inactive = below about 30%; also: 0% is about no effect; the text of the record puts the active cut at 80%
Target sequence (Q9GZU1 whole entry, looked up): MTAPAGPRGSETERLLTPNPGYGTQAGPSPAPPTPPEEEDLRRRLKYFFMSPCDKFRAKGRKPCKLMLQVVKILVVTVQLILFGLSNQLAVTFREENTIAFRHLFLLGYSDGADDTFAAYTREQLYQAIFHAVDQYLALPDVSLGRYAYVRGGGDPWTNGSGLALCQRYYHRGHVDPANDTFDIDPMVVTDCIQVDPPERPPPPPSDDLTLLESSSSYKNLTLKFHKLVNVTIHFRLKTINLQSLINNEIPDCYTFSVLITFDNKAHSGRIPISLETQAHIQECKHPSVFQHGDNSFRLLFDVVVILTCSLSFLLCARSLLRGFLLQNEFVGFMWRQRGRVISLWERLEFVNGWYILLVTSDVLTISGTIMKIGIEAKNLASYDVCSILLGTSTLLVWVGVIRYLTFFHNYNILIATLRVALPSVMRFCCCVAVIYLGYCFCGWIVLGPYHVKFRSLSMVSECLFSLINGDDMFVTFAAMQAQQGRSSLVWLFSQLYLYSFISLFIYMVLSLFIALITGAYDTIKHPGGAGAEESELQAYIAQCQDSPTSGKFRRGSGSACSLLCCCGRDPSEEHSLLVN
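In this qHTS format, compounds were pin-transferred onto Ca8-dye-loaded TRPML1-DL cells induced with Tet overnight, and intracellular Ca2+ fluorescence was recorded kinetically for 110 s after a 10 s baseline. A subsequent 4uM final 54-4 (EC80) addition followed by a second 110 s read served as the antagonist phase.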
TRPML1 inh – human mucolipin-1 channel inhibition; AID 624415; TRPML1-inducible cells, Ca2+ dye fluorescence, FDSS; stronger effect = lower value; inhibition of EC80 agonist-evoked calcium signal; Q9GZU1; actives 0.02% (n = 390,000); activity change, negative = inhibition, % (no concentration beside the values); in the data active means activity change below about -50%; inconclusive means about -30% to -50%; inactive means above about -30%;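 also: stimulus is agonist 54-4 at its EC80 concentration; % is scaled to controls: 0 for no effect and ±100 for the full control effect; compound concentration not given in the record; the text of the record puts the active cut at -80%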
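Calcium fluorescence in TRPML1-DL cells induced overnight with Tet: a 110 s read after compound pin addition, then a 110 s antagonist read after challenge with 54-4 at 4 uM final (EC80).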
ClpP mod – qHTS Assay for Activators of ClpP; ATP-dependent Clp protease proteolytic subunit (Bacillus subtilis (strain 168)), P80244; purified B. subtilis ClpP, FRET peptide cleavage, 20 min; Potency, µM (highest dose often 57.5 µM), for the others: at the highest dose activity change, negative = active; actives 1.9% (n = 340,000); active = well fitted falling curve with a large enough effect; inconclusive = small, poorly fitted or top-dose-only effect; inactive = no such curve, though single readings can be large or run the other way; also: potency is read from the fitted curve at half-maximal effect; the source files actives as falling curves though it sought activators and does not explain the sign; nearly all actives have a fitted effect of over 65% in size; many hits overshoot -100%
Target sequence (P80244 whole entry, looked up): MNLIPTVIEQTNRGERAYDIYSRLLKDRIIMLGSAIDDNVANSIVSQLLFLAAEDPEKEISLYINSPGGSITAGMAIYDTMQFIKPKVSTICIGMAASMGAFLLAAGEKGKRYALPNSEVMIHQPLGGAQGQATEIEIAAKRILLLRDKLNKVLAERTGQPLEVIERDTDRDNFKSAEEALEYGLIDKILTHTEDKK
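Buffer: 100 mM Tris/HCl pH8, 100 mM KCl, 0.05% low protease BSA, 2.5% glycerol, 0.01% Tween-20. ClpP 10 microg/mL final; 20 min RT; delta FRET normalized to ADEP and DMSO controls.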
Menin-MLL FL inh – displaces fluorescein MLL peptide from human menin; Fluorescence polarization, fluorescein-MLL peptide displacement from menin; FP activity change, % at 61.4 µM; 290,000 tested, under 10 active; AID 1766; inconclusive = falling polarisation curve, or a change in total fluorescence; inactive = total fluorescence flat and polarisation flat or rising; no compound was filed as active; the % refers to the polarisation; negative = inhibition;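 also: % of control where 0% means no effect; inhibitors lower the polarisation; unlabelled MLL peptide was the positive control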
PINK1 expr mod – modulators of PINK1 expression; PINK1 immunofluorescence, high-content cytometry, 24 h; Potency, µM (doses to about 76.6 µM), inactives show at the top dose activation (PINK1 increase), most hits filed as activators; actives 0.2% (n = 410,000); active = well fitted activation curve with a large enough effect; inconclusive = small, poorly fitted or top-dose-only effect; inactive = flat fitted curve, though single readings scatter; cell line not stated here;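 also: potency is read from the fitted curve at half-maximal effect; % of control where 0% means no effect; nearly all actives have a fitted effect of over 65% in size; a mitochondrial uncoupler was the plate control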
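Stable cell line, 250 cells/well, 12 h attachment; compounds pinned at 5 concentrations, 24 h; CCCP control. Fixed with nuclear dye, primary antibodies 12 h at 10 degrees C, secondary plus cell stain; laser-scanning cytometer read.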
Sfp inh – blocks B. subtilis Sfp PPTase activity; Q9F4F7; actives 3.5% (n = 310,000); AID 1490; Biochemical Sfp PPTase activity, qHTS; Potency, µM, without a hit: max response, negative = inhibition, usual class: inhibitors; active = well fitted inhibition curve with a large enough effect; inconclusive = small, poorly fitted or top-dose-only effect, or another doubt; inactive = no such curve, though single readings can be large or run the other way;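 also: the enzyme is Sfp with the accession as filed and its product quenches rhodamine fluorescence; potency is read from the fitted curve at half-maximal effect; 0% = enzyme reaction without inhibitor and -100% = no enzyme wells; top concentration of the series not given in the record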
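Step 1, compound plus 15 nM Sfp-PPTase, 15 min, room temperature. Step 2, add rhodamine-CoA (5 uM) and BHQ-2-YbbR (12.5 uM). Step 3, read 525/598 nm fluorescence at 0 and 30 min.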
* = called active by the depositor; u = inconclusive; x = not tested or not shown; & = joins results of further samples; [ ] = dose if it differs, or a comment.

Results follow in this order: TRPV1 PAM	TRPML1 agonist	TRPML1 inh	ClpP mod	Menin-MLL FL inh	PINK1 expr mod	Sfp inh
COc1ccc(OCC(=O)Nc2nccs2)cc1
→ -12	-1.2	-22	-0.2%	-4.6	-0.2%	9%
N#Cc1ccc(C(=O)NC2=NCCS2)cc1
→ 18	-0.4	-21	-2.3%	4.1	0.5%	16%
COc1ccc(C)cc1NC(=O)C(=O)NCC1(c2ccccc2)CCCC1
→ x	11	-8	1.0%	x	4.2%	x
CN(C)S(=O)(=O)c1ccc(Cl)c(NC(=O)CN2CCC(Cc3ccccc3)CC2)c1
→ 9	1.1	44	x	1.7	1.4%	12%
NS(=O)(=O)c1ccc(Nc2ncccc2[N+](=O)[O-])cc1
→ 5	-0.1	-4	-1.4%	0.6	8.7%[38.3 µM]	8%
CC(OC(=O)CCN=C1NS(=O)(=O)c2ccccc21)C(=O)c1ccccc1 (centres undefined)
→ -7	-0.3	10	0.9%	x	-2.4%	x
CCC(=O)Nc1cccc(NC(=O)c2ccc(C)c([N+](=O)[O-])c2)c1
→ -6	1.3	21	0.6%	3.3	4.7%[38.3 µM]	8%
CCNC(=S)N(Cc1cc2cc(C)c(C)cc2[nH]c1=O)C1CCCC1
→ -1	0.4	27	x	-5.9	-1.1%	8%
O=C(NN=c1c(=O)c2ccccc2c1=O)c1ccccc1
→ -2	0.0	24	-8.1%	1.6	x	7%
CC(=O)c1cnc2n(c1=O)CCS2
→ 16	-0.3	4	x	2.0	-0.6%	20%
CCN(CC)S(=O)(=O)c1ccc2c(c1)N(CC(=O)N1CCN(c3cccc(C)c3C)CC1)C(=O)CO2
→ x	0.3	1	-1.0%	x	0.5%	x
Cc1nn(-c2ccccc2)c2c1N(CCCC(=O)NC(C)c1ccccc1)C(=O)CS2 (centres undefined)
→ x	-0.2	-1	1.4%	x	2.1%	x
C#CCNC(=O)C1=C[C@H](c2ccc(C#C)cc2)C[C@H](OCc2ccc(CO)cc2)O1
→ x	-0.1	-10	-10%	x	1.7%	x
O=C(COc1ccccc1[N+](=O)[O-])c1ccccc1
→ 2	0.8	-5	x	1.3	0.4%	-23%
Cc1cc(=O)n2nc(N3CCCC3C(=O)Nc3cccc(Cl)c3C)sc2n1 (centres undefined)
→ 1	-0.2	7	-0.6%	u	1.9%	12%
COc1ccc(-c2noc(-c3ccc(N4CCOCC4)c([N+](=O)[O-])c3)n2)cc1OC
→ x	-0.6	-1	-0.9%	x	-1.1%	x
COc1ccc(S(=O)(=O)N2CCOCC2)cc1NC(=O)COc1ccccc1OC
→ -3	-0.3	-12	x	2.1	7.0%	14%
CC(OC(=O)COc1ccc(Nc2ccccc2)cc1)C(=O)N(C)c1ccccc1 (centres undefined)
→ -23	-0.2	-4	-5.0%	x	0.6%	x
CCc1ccc(NC(=O)C(=O)c2cn(CC(=O)N3CCCCC3)c3ccccc23)cc1
→ 15	1.7	21	-1.7%	0.3	3.2%	6%
Cc1cc2c(c(=O)n1C1CC1)C(c1cccc(Cl)c1)C(C#N)=C(N)O2 (centres undefined)
→ 3	3.1	4	-0.6%	1.6	-1.9%	2%
CN(C)S(=O)(=O)c1ccc(Cl)c(NC(=O)COC(=O)[C@@H]2CCCN2C(=O)c2cccs2)c1
→ 7	1.5	22	-0.9%	3.5	-0.8%	17%
CCc1ccc(NC(=O)CSC2=Nc3ccccc3C3=NC(CCC(=O)NCc4ccccc4)C(=O)N23)cc1 (centres undefined)
→ x	0.2	-4	45%	x	0.0%	x
CCOC(=O)c1cc2cc(CC(=O)c3ccc(OCC)cc3O)ccc2o1
→ u	u	-6	-3.2%	3.8	-2.1%	3%
Cn1c(=O)c(=O)n(C)c2cc(N3CCCC3)c(NC(=O)c3ccccc3Cl)cc21
→ x	0.1	25	-2.2%	x	-1.5%	x
Cc1ccc(NC(=O)c2sc(Cl)nc2C)c(C)c1
→ -16	-0.4	-7	2.2%	-0.6	2.3%	0%
CC(=O)Nc1nonc1-c1nc2ccccc2n1Cc1ccccn1
→ -3	-1.4	-10	-20%	-1.4	-1.9%	11%
CCOC(=O)C1CCN(C(=O)CSc2nccc(C)n2)CC1
→ -3	-0.5	-17	x	0.6	2.8%	0%
COc1ccc(-c2cc(=O)oc3cc(OCC(=O)Nc4ccccn4)ccc23)cc1
→ 9	0.6	-15	-2.6%	1.1	7.7%	7%
O=C(CCl)N1N=C(c2ccco2)CC1c1cccs1 (centres undefined)
→ -7	-1.3	-3	-0.7%	17	-3.0%	28µM*
Cc1ccc2nc(SCC(=O)NCc3cccs3)[nH]c2c1
→ -14	-0.4	-7	1.2%	5.8	1.0%	-2%
COC(=O)CSc1nnc(-c2cccnc2)n1-c1cc(OC)cc(OC)c1
→ -9	-0.3	-7	0.0%	4.4	2.1%[38.3 µM]	-4%
O=C(CN1C(=O)NC2(CCCC2)C1=O)OCCOc1ccc(F)cc1
→ 1	-0.1	-10	x	x	-1.7%	x
CC(=O)NS(=O)(=O)c1ccc(NC(=O)c2cc(-c3ccc(C)cc3)nc3ccccc23)cc1
→ -16	-1.0	6	-2.6%	0.4	0.5%	-3%
COc1ccc(-n2c(=O)c(-c3ccc(F)cc3)nc3cncnc32)cc1
→ x	x	x	x	1.5	-0.2%	-5%
Cn1c(CNC(=O)c2ccc(Cl)cc2)nnc1SCC(=O)NC1=NCCS1
→ 1	-0.6	1	x	-15	3.1%	4%
O/N=C1/C2C3C(Br)C4C5CC(C1C53)C24 (centres undefined)
→ 8	-0.2	-17	-0.1%	3.4	1.9%	10%
O=C(CSc1nccn1-c1ccc(Cl)cc1)Nc1ccc2c(c1)OCO2
→ -8	1.0	9	-6.9%	7.0	-1.0%	7%
CN1C(=O)/C(=C/c2ccc(OCc3ccc(F)cc3)cc2)NC1=S
→ -6	1.6	-6	x	-3.1	u	-3%
O=C(NCCCO)c1nnc(Cc2c(F)cccc2Cl)o1
→ 3	2.2	-13	-2.1%	1.9	-3.3%[38.3 µM]	9%
COc1ccc(N2CC(NC(=O)c3cccs3)CC2=O)cc1 (centres undefined)
→ x	0.5	2	1.3%	x	1.7%	x
Cc1[nH]c2ccccc2c1C(=O)C(=O)N1c2ccccc2CC1C (centres undefined)
→ -24	7.7	-3	1.6%	3.6	3.7%	12%
CCCCN(CCCC)S(=O)(=O)c1ccc(NC(=O)c2cccs2)cc1
→ 6	1.3	-2	u	6.7	1.1%[38.3 µM]	21%
CCOc1ccc2nc(NCCNC(=O)C(C)C)c(C)cc2c1
→ 14	4.1	15	16µM*	1.5	-2.1%	13%
Cn1c(SCC(=O)c2ccc(F)cc2)nnc1-c1cccnc1
→ 4	0.1	-9	x	0.0	1.2%	8%
CC(=O)N1N=C(c2ccncc2)OC12CCCCCC2
→ -18	0.4	32	u	-0.2	-1.6%[38.3 µM]	15%
Cn1nccc1C(=O)Nc1ccc(Cl)cc1
→ -22	-0.1	-7	0.4%	1.9	x	21%
O=C(O)CCc1nn2c3ccccc3n(Cc3ccccc3F)c2nc1=O
→ 9	1.0	36	x	-1.4	-0.8%	17%
O=C(c1cc2cc([N+](=O)[O-])ccc2oc1=O)N1CCN(c2ncccn2)CC1
→ 14	2.6	-7	1.5%	1.3	8.5%[38.3 µM]	1%
CC(Oc1ccc(F)cc1F)C(=O)/C=C/N(C)C (centres undefined)
→ 24	1.0	2	-1.1%	u	0.7%[38.3 µM]	-19%
CC1CCN(S(=O)(=O)c2cccc(C(=O)N(C)C3(C)CCS(=O)(=O)C3)c2)CC1 (centres undefined)
→ 18	0.0&0.0	2&14	0.4%&-0.5%	-3.5	4.6%&-0.1%	10%
CNC(=O)c1cc2c(s1)-c1ccccc1CC2
→ 0	0.6	-17	3.7%	0.2	0.6%	-15%
CN1CCC(OC(c2ccccc2)c2ccccc2)CC1
→ 7	0.2	3	0.8%	0.7	-0.6%	13%&-9%&31%
CCOC(=O)c1[nH]c2ccc(OCC)cc2c1NC(=O)CN1CCN(c2ccccn2)CC1
→ -9	0.6	5	18µM*	2.6	1.6%	-3%
Cc1noc(C)c1S(=O)(=O)N1CCN(c2ccccc2)CC1
→ -11	0.0	0	-0.3%	4.9	0.5%	-9%
O=C(Cn1cnc2ccccc2c1=O)Nc1cccc(S(=O)(=O)N2CCCCC2)c1
→ 4	x	x	0.2%	6.8	0.3%	18%
Cc1cccc(C)c1Nc1c(-c2ccccc2O)nc2ncccn12
→ 23	1.0&-0.6	-5&4	-0.1%	10	11%&-1.0%	-12%
CCCCCCn1nc(C(=O)OCC(=O)NC2CCS(=O)(=O)C2)c2ccccc2c1=O (centres undefined)
→ -3	-0.6	-1	x	-11	1.7%	-11%
O=S(=O)(c1ccccc1)N1N=C(c2ccc(Cl)cc2)CC1c1ccco1 (centres undefined)
→ -2	-0.4	-11	-1.8%	x	1.7%	x
COc1ccc(-c2cc(C(F)(F)F)n3ncc(C(=O)O)c3n2)cc1OC
→ 4	-0.3	-15	-0.8%	1.7	1.8%	6%
CC(=O)Nc1ccc(S(=O)(=O)Nc2cccc(-c3ccc(N4CCC(C)CC4)nn3)c2)cc1
→ x	1.7	14	-10%	x	1.6%	x

(next part)
Results follow in this order: TRPV1 PAM	TRPML1 agonist	TRPML1 inh	ClpP mod	Menin-MLL FL inh	PINK1 expr mod	Sfp inh
COc1ccc(OCCC(=O)N2CCCCC2)cc1
→ -2	1.1	10	-1.7%	0.2	0.1%	10%
Cc1cc(-n2nc(C)cc2C)n2nc(C)c(-c3ccc(Cl)cc3)c2n1
→ -3	-0.4	6	0.3%	-1.3	u	11%
CCOc1ccc(CNC(=O)c2ccc(Sc3ccc(Cl)cc3)c(NC(C)=O)c2)cc1OC
→ -1	0.6&-0.7	1&-8	u	1.1	0.4%&-1.4%	10%
COc1ccccc1OCCNC(=O)C1CC(=O)N(c2ccc3c(c2)OCCO3)C1 (centres undefined)
→ 12	-1.2	7	-0.9%	x	2.6%	x
O=C(COC(=O)C1COc2ccccc2O1)c1ccccc1 (centres undefined)
→ x	0.3	3	-0.7%	x	2.0%	x

Source: PubChem BioAssay (National Center for Advancing Translational Sciences (NCATS))
